Mtb MenB inh: inhibitors of Mycobacterium tuberculosis MenB enzyme; inhibition, %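 (about 12 µg/mL by stock and volumes)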; MenB enzyme assay, absorbance read-out; some hits fall short of the stated cut; P9WNP5; 100,000 tested, 0.43% active; AID 540299;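 active = mean of two replicates above 30%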;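 note: 0% = no compound and 100% = wells with inactive enzyme; the first replicate is given; strong numbers were not always called active; inactives centre near -10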
Target sequence (P9WNP5 whole entry, looked up): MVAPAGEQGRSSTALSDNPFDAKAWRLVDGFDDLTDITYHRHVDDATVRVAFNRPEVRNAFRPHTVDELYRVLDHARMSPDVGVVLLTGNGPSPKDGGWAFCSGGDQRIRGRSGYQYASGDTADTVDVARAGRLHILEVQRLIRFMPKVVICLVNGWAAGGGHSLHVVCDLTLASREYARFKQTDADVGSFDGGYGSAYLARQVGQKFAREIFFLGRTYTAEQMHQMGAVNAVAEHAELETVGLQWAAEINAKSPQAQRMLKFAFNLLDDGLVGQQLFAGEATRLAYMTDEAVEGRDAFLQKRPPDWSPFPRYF
MbtI inh: blocks the Mycobacterium tuberculosis siderophore enzyme MbtI | P9WFX0 | purified MbtI enzyme, fluorescence intensity read-out | inhibition, %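 (about 17 µg/mL by stock and volumes)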 | 100,000 tested, 0.89% active;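 active = above 50% in both replicates, above 80% if mildly self-fluorescent; inactive = the rest, strongly fluorescent compounds included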;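 note: 0% = mean of negative and 100% = mean of positive controls; one replicate is shown; some compounds called inactive have numbers as strong as hits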
Target sequence (P9WFX0 whole entry, looked up): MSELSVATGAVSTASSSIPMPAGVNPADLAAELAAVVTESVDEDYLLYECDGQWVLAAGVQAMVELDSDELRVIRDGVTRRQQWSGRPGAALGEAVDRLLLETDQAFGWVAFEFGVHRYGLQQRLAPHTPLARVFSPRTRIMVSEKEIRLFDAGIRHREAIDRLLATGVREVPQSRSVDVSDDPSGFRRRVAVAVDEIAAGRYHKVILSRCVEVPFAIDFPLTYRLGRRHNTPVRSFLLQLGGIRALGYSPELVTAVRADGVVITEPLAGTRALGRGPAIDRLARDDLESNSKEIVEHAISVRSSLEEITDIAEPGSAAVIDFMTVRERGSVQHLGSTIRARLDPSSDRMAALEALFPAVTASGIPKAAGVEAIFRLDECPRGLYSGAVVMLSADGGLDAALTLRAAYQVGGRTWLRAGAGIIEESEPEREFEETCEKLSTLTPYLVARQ
PV pol inh: inhibitors of poliovirus RNA polymerase binding and polymerization | AID 588519 | P03300 | poliovirus polymerase elongation, fluorescence polarization; active compounds read low | 150,000 tested, 0.66% active | % elongation, % (compound at 16.7 µg/mL); in the data active = % elongation below about 90%; note: some results filed as inactive read as strong as hits
PV pol inh intensity: recorded beside PV pol inh, whose call it bears; % elongation; measured here: total intensity read-out; formula for this scale not given here;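 total fluorescence in place of polarization; lower means less elongation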
* = called active by the depositor.

Results for O=C1CS/C(=N/c2ccccn2)N1C1CCCCC1 ?
Mtb MenB inh: -16; MbtI inh: -2; PV pol inh: 101; PV pol inh intensity: 102

What do the screens show for `CCN1CCCC1CN(Cc1cc2cc(OC)ccc2[nH]c1=O)C(=O)Nc1ccccc1` (configuration not stated)?
Mtb MenB inh: 19; MbtI inh: 89; PV pol inh: 102; PV pol inh intensity: 102

How did CCc1nc2cc(N)ccc2n1C do in these assays?
Mtb MenB inh: -39; MbtI inh: 88; PV pol inh: 96; PV pol inh intensity: 92

Results for O=C(NC1CCCCC1)C(=S)NC1CCCC1 ?
Mtb MenB inh: -4; MbtI inh: 19; PV pol inh: 100; PV pol inh intensity: 102

What do the screens show for `O=C(NCc1cccs1)C1CCC(CNS(=O)(=O)c2cccc3nsnc23)CC1` (configuration not stated)?
Mtb MenB inh: -9; MbtI inh: -9; PV pol inh: 105; PV pol inh intensity: 98

What do the screens show for `CCOc1cc(/C=C/C(=O)C2C(=O)C=C(C)OC2=O)cc(Br)c1O` (configuration not stated)?
Mtb MenB inh: -27; MbtI inh: 0; PV pol inh: 117; PV pol inh intensity: 114

Results for COC(=O)CSc1nnc(CNC(=O)c2cccs2)n1C ?
Mtb MenB inh: 15; MbtI inh: -2; PV pol inh: 101; PV pol inh intensity: 105

Results for Cc1ccc2c(c1)OC(=O)CC2c1ccccc1 (configuration not stated) ?
Mtb MenB inh: 5; MbtI inh: 18; PV pol inh: 103; PV pol inh intensity: 96

Results for Nc1ccc2oc(-c3ccccc3)nc2c1 ?
Mtb MenB inh: -42; PV pol inh: 101; PV pol inh intensity: 92

Results for COc1ccc(/C=N/N2C(=O)c3ccc4c5c(ccc(c35)C2=O)CC4)cc1Br ?
Mtb MenB inh: -14; MbtI inh: 26; PV pol inh: 104; PV pol inh intensity: 109

How did Cc1ccccc1C(=O)N1CCC(C(=O)OCc2ccccn2)CC1 do in these assays?
Mtb MenB inh: -4; MbtI inh: -6; PV pol inh: 98; PV pol inh intensity: 106

How did O=C(C1CC1)N1CCN=C1SCc1ccc(C(F)(F)F)cc1 do in these assays?
Mtb MenB inh: -17; MbtI inh: 5; PV pol inh: 101; PV pol inh intensity: 105

How did NS(=O)(=O)c1ccc(CCNC(=O)CSc2nc3ccc(Cl)cc3o2)cc1 do in these assays?
Mtb MenB inh: 6; MbtI inh: 2; PV pol inh: 104; PV pol inh intensity: 107

What do the screens show for `Cc1cc(/C=c2\sc3nc4ccccc4n3c2=O)c(C)n1-c1cccnc1`?
Mtb MenB inh: -17; MbtI inh: 0; PV pol inh: 105; PV pol inh intensity: 110

Results for CSC(=NC(C)C)NC#N ?
Mtb MenB inh: 0; MbtI inh: 4; PV pol inh: 102; PV pol inh intensity: 100

What do the screens show for `N#Cc1ccccc1CSc1nc2ccccc2c(=O)n1CCCC(=O)NCc1ccco1`?
Mtb MenB inh: 13; MbtI inh: 7; PV pol inh: 102; PV pol inh intensity: 103

What do the screens show for `CC1=NN(C(=O)CSc2nnc(-c3ccncc3)o2)C(C)(O)C1` (configuration not stated)?
Mtb MenB inh: 0; PV pol inh: 105; PV pol inh intensity: 110

Results for COc1ccccc1Cn1c(N)c(C(N)=O)c2nc3ccccc3nc21 ?
Mtb MenB inh: -21; MbtI inh: -20

What do the screens show for `Cc1csc2nc(CNS(=O)(=O)c3ccccc3)cn12`?
Mtb MenB inh: 11; MbtI inh: 3; PV pol inh: 102; PV pol inh intensity: 103

Results for N#CCOC(=O)CCc1nc2ccccc2s1 ?
Mtb MenB inh: -29; MbtI inh: 1; PV pol inh: 102; PV pol inh intensity: 106

Results for COC(=O)c1ccc(OCC(=O)Nc2ccccc2C(=O)NC2CC2)cc1 ?
Mtb MenB inh: -25; MbtI inh: -10; PV pol inh: 107; PV pol inh intensity: 107

How did O=C(c1c[nH]c2ccccc2c1=O)N1CCCCC1 do in these assays?
Mtb MenB inh: -29; PV pol inh: 98; PV pol inh intensity: 96

How did O=C1Nc2nc(=O)nc3[nH]c(=O)nc(n23)N1 do in these assays?
Mtb MenB inh: -26; MbtI inh: -64; PV pol inh: 102; PV pol inh intensity: 99

What do the screens show for `Cc1ccccc1NCc1ccccc1O`?
Mtb MenB inh: -2; MbtI inh: 17; PV pol inh: 98; PV pol inh intensity: 99

How did Cc1nc(SCc2ncc(-c3ccccc3)o2)c2ccccc2n1 do in these assays?
Mtb MenB inh: -29; MbtI inh: -7; PV pol inh: 115; PV pol inh intensity: 116

What do the screens show for `CC(Sc1nnc(CC(=O)Nc2ccccc2F)n1C)C(=O)Nc1ccc2c(c1)OCO2` (configuration not stated)?
Mtb MenB inh: -42; MbtI inh: 0; PV pol inh: 104; PV pol inh intensity: 101

What do the screens show for `CCN(Cc1ccccc1)C(=O)CSc1nc2ccncc2[nH]1`?
Mtb MenB inh: -23; MbtI inh: 3; PV pol inh: 105; PV pol inh intensity: 100

How did O=C(CSc1nnc(-c2ccc3c(c2)OCO3)o1)N1N=C(c2cccs2)CC1c1ccco1 (configuration not stated) do in these assays?
Mtb MenB inh: -38; MbtI inh: 61; PV pol inh: 105; PV pol inh intensity: 111

How did CN(C)CCNC(=O)c1cc(-c2ccc(F)cc2)nc2ccccc12 do in these assays?
MbtI inh: 146; PV pol inh: 100; PV pol inh intensity: 103

What do the screens show for `Clc1ccc(CN2CCN(/N=C/C=C/c3ccco3)CC2)cc1`?
Mtb MenB inh: -10; MbtI inh: -4; PV pol inh: 103; PV pol inh intensity: 99

Results for Cc1ccc(C)c(OCCCN2CCNCC2)c1 ?
Mtb MenB inh: 4; PV pol inh: 97; PV pol inh intensity: 105

Results for ClCC1CCCO1 (configuration not stated) ?
MbtI inh: 13; PV pol inh: 101; PV pol inh intensity: 95

How did CSc1ncnc2c1ncn2CN1CCOCC1 do in these assays?
Mtb MenB inh: -2; PV pol inh: 103; PV pol inh intensity: 109

Results for Cc1noc(C)c1NC(=O)Nc1ccc(N(C)C)cc1 ?
Mtb MenB inh: 14; MbtI inh: 4; PV pol inh: 103; PV pol inh intensity: 96

How did COc1cc(CN2CC3CC(C2)c2cccc(=O)n2C3)cc(Br)c1O (configuration not stated) do in these assays?
Mtb MenB inh: -6; MbtI inh: 7; PV pol inh: 99; PV pol inh intensity: 104

How did O=C(Nc1ccncc1)c1cn(-c2ccccc2)nc1-c1cccs1 do in these assays?
MbtI inh: -3; PV pol inh: 100; PV pol inh intensity: 106

How did COc1ccc(-c2csc(N)n2)cc1F do in these assays?
Mtb MenB inh: -2; MbtI inh: 3; PV pol inh: 104; PV pol inh intensity: 107

What do the screens show for `Cc1cc(C)c2c(n1)SCC(=O)N2CCCC(=O)NCc1ccccc1`?
Mtb MenB inh: -23; MbtI inh: -5; PV pol inh: 107; PV pol inh intensity: 100

How did CCOC(=O)c1cnc2ccccc2c1Nc1ccc(OC)cc1 do in these assays?
Mtb MenB inh: -33; MbtI inh: 2; PV pol inh: 105; PV pol inh intensity: 103

Results for COc1ccc2[nH]c(=O)c(CN(C3CCCC3)S(=O)(=O)c3cccc4nsnc34)cc2c1 ?
Mtb MenB inh: 18; MbtI inh: -3; PV pol inh: 101; PV pol inh intensity: 102

How did O=C(Nc1ccccc1)c1cc(Cl)ccc1O do in these assays?
MbtI inh: -144; PV pol inh: 104; PV pol inh intensity: 106

What do the screens show for `Cc1c(NC(=O)NCCCN2CCOCC2)sc2nc3n(c(=O)c12)CCC(C)CC3` (configuration not stated)?
Mtb MenB inh: -22; MbtI inh: 5; PV pol inh: 107; PV pol inh intensity: 101

Results for O=C(Cn1nc(-c2ccco2)ccc1=O)NCc1ccco1 ?
Mtb MenB inh: -4; MbtI inh: 32; PV pol inh: 107; PV pol inh intensity: 104

Results for O=c1[nH]c2c(=O)oc3ccccc3c2n(C2CCCCC2)c1=O ?
Mtb MenB inh: -17; MbtI inh: 8; PV pol inh: 100; PV pol inh intensity: 104

How did O=C(NCc1ccco1)c1ccc(S(=O)(=O)NCC2CCCCC2)cc1 do in these assays?
Mtb MenB inh: 21; MbtI inh: 7; PV pol inh: 100; PV pol inh intensity: 102

12 structures already listed, sorted by molar mass, high to low:
Results for COc1ccc2[nH]c(=O)c(CN(C3CCCC3)S(=O)(=O)c3cccc4nsnc34)cc2c1 ?
Mtb MenB inh: 18; MbtI inh: -3; PV pol inh: 101; PV pol inh intensity: 102

What do the screens show for `Cc1c(NC(=O)NCCCN2CCOCC2)sc2nc3n(c(=O)c12)CCC(C)CC3` (configuration not stated)?
Mtb MenB inh: -22; MbtI inh: 5; PV pol inh: 107; PV pol inh intensity: 101

How did COc1cc(CN2CC3CC(C2)c2cccc(=O)n2C3)cc(Br)c1O (configuration not stated) do in these assays?
Mtb MenB inh: -6; MbtI inh: 7; PV pol inh: 99; PV pol inh intensity: 104

How did O=C(NCc1ccco1)c1ccc(S(=O)(=O)NCC2CCCCC2)cc1 do in these assays?
Mtb MenB inh: 21; MbtI inh: 7; PV pol inh: 100; PV pol inh intensity: 102

What do the screens show for `Cc1cc(C)c2c(n1)SCC(=O)N2CCCC(=O)NCc1ccccc1`?
Mtb MenB inh: -23; MbtI inh: -5; PV pol inh: 107; PV pol inh intensity: 100

How did O=C(Nc1ccncc1)c1cn(-c2ccccc2)nc1-c1cccs1 do in these assays?
MbtI inh: -3; PV pol inh: 100; PV pol inh intensity: 106

How did CCOC(=O)c1cnc2ccccc2c1Nc1ccc(OC)cc1 do in these assays?
Mtb MenB inh: -33; MbtI inh: 2; PV pol inh: 105; PV pol inh intensity: 103

Results for O=c1[nH]c2c(=O)oc3ccccc3c2n(C2CCCCC2)c1=O ?
Mtb MenB inh: -17; MbtI inh: 8; PV pol inh: 100; PV pol inh intensity: 104

Results for O=C(Cn1nc(-c2ccco2)ccc1=O)NCc1ccco1 ?
Mtb MenB inh: -4; MbtI inh: 32; PV pol inh: 107; PV pol inh intensity: 104

Results for Cc1noc(C)c1NC(=O)Nc1ccc(N(C)C)cc1 ?
Mtb MenB inh: 14; MbtI inh: 4; PV pol inh: 103; PV pol inh intensity: 96

How did CSc1ncnc2c1ncn2CN1CCOCC1 do in these assays?
Mtb MenB inh: -2; PV pol inh: 103; PV pol inh intensity: 109

Results for Cc1ccc(C)c(OCCCN2CCNCC2)c1 ?
Mtb MenB inh: 4; PV pol inh: 97; PV pol inh intensity: 105

New compounds follow.
What do the screens show for `N#Cc1ccc(NC(=O)c2cc(=O)c3ccccc3o2)cc1`?
Mtb MenB inh: -6; MbtI inh: -31; PV pol inh: 106; PV pol inh intensity: 109

How did NS(=O)(=O)c1ccc(CCNC(=O)C2CCCC2)cc1 do in these assays?
Mtb MenB inh: 6; MbtI inh: -17; PV pol inh: 101; PV pol inh intensity: 106

What do the screens show for `O=C(O)CCNc1ccccc1`?
MbtI inh: -3; PV pol inh: 104; PV pol inh intensity: 105

How did CCCN(Cc1nnc(-c2ccccc2Cl)o1)C(=S)NC1CCCCC1 do in these assays?
Mtb MenB inh: -21; MbtI inh: 2; PV pol inh: 101; PV pol inh intensity: 108

What do the screens show for `COc1cc2c3cc1Oc1c(OC)c(OC)cc4c1[C@@H](Cc1ccc(OC(=O)c5ccc([N+](=O)[O-])cc5)c(c1)Oc1ccc(cc1)C[C@@H]3N(C)CC2)N(C)CC4`?
MbtI inh: -4; PV pol inh: 100; PV pol inh intensity: 100

What do the screens show for `CC(C)N1CC(=O)N(c2ccc(F)c(Cl)c2)C1=S`?
Mtb MenB inh: -8; MbtI inh: -1; PV pol inh: 104; PV pol inh intensity: 104

How did COc1ccc(NC(=O)Cn2nnc(C(=O)Nc3ccc(OC)c(OC)c3)c2N)cc1 do in these assays?
Mtb MenB inh: -27; MbtI inh: 44; PV pol inh: 103; PV pol inh intensity: 103

Results for Cc1ccc(N2C(=O)/C(=C\c3ccc4c(c3)OCO4)N=C2SC2CCOC2=O)cc1 (configuration not stated) ?
Mtb MenB inh: -67; MbtI inh: -27; PV pol inh: 101; PV pol inh intensity: 107

How did CC(=O)N1CCN(C(=S)c2ccc(C(C)(C)C)cc2)CC1 do in these assays?
Mtb MenB inh: -17; MbtI inh: -1; PV pol inh: 103; PV pol inh intensity: 110

How did O=C(OCc1ccc(Cl)cc1)c1ccc2c(c1)C(=O)N(CCCN1CCOCC1)C2=O do in these assays?
Mtb MenB inh: 3; MbtI inh: 94; PV pol inh: 104; PV pol inh intensity: 95

Results for CC(C)CNS(=O)(=O)c1ccc(S(=O)(=O)N2CCCC(C(=O)NC3CCCCC3)C2)cc1 (configuration not stated) ?
Mtb MenB inh: 0; MbtI inh: -8; PV pol inh: 101; PV pol inh intensity: 103

What do the screens show for `CSc1ncnc2c1nnn2Cc1ccccc1Cl`?
Mtb MenB inh: 8; MbtI inh: -2; PV pol inh: 103; PV pol inh intensity: 104

How did N#CC(C#N)=Cc1ccc(Cl)s1 do in these assays?
Mtb MenB inh: -24; MbtI inh: 0; PV pol inh: 94; PV pol inh intensity: 95

Results for Cc1ccccc1OCC(=O)Nc1cccnc1 ?
Mtb MenB inh: 0; PV pol inh: 101; PV pol inh intensity: 107

Results for CNCc1ccccc1C(F)(F)F ?
MbtI inh: -6; PV pol inh: 105; PV pol inh intensity: 100

Results for O=S(=O)(c1cnc[nH]1)N1CCN(Cc2ccccc2)CC1 ?
Mtb MenB inh: -23; MbtI inh: -6; PV pol inh: 100; PV pol inh intensity: 102

What do the screens show for `COc1ccc2[nH]cc(NC(=O)N3CCN(C(=O)OC(C)(C)C)CC3)c(=O)c2c1`?
Mtb MenB inh: -16; MbtI inh: 89; PV pol inh: 106; PV pol inh intensity: 101

High-throughput results (PubChem BioAssay)

An unsorted share of the library. About 1.7% of those tested had a hit in this group.
